Assay outcomes (PubChem BioAssay)
Vaccinia stage = blocks a specific stage of Vaccinia orthopoxvirus infection, primary screen, cell-based, single point. Vaccinia-infected cells, mCherry/Venus stage reporter fluorescence; stronger effect = lower value; some inactives read as strong as hits. activity change (mCherry), % (concentration not given with the values). 89,000 compounds, 0.01% hits. AID 1053133, 2014;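 active = mCherry past -33% and 40 or more points under the early reporter, replicates agreeing; inconclusive = past -33% without that gap or agreement; tested in A549 cells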;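 also: scaled between vehicle wells and reference inhibitor wells; 23 nL library stock went into each well; one replicate is shown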
Vaccinia stage Venus = recorded beside Vaccinia stage, whose call it bears; activity change (Venus), %; measured here: Venus reporter, other viral stage;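 negative = less Venus signal; first of two replicates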
The depositor's hits bear a star; ? = inconclusive; . = no result given. The list is partial, so the mix of outcomes need not match the whole.

SMILES | Vaccinia stage | Vaccinia stage Venus
Cc1cc(C(=O)Nc2cccc3c2O[C@@H](CN(C)C(=O)Nc2ccc4c(c2)OCO4)[C@@H](C)CN([C@@H](C)CO)C3=O)n(C)n1 | 41 | 29
COc1cccc(NC(=O)N2CC3(C2)[C@@H](c2ccccc2)[C@@H](CO)N3C(C)=O)c1 | 14 | 14
C[C@H](CO)N1C[C@H](C)[C@@H](CN(C)C(=O)c2cnccn2)Oc2ncc(C#CCN(C)C)cc2C1=O | 11 | 10
C[C@@H]1CCCCO[C@H](CN(C)S(C)(=O)=O)[C@@H](C)CN([C@H](C)CO)C(=O)c2cc(NC(=O)Nc3ccccc3)ccc2O1 | 20 | 8
CC(C)NC(=O)Nc1ccc2c(c1)C(=O)N([C@@H](C)CO)C[C@@H](C)[C@H](CN(C)C(=O)Nc1ccc(C(F)(F)F)cc1)O2 | 3 | -3
C[C@H](CO)N1C[C@H](C)[C@H](CN(C)Cc2ccc(F)cc2)Oc2ncc(-c3cccc(C#N)c3)cc2C1=O | -4 | -5
O=C(C[C@H]1C[C@@H]2c3cc(NC(=O)Nc4ccccc4F)ccc3O[C@@H]2[C@@H](CO)O1)NCC1CC1 | 8 | 3
CO[C@H]1CN(C)C(=O)c2cc(NC(=O)c3nc4ccccc4s3)ccc2OC[C@H](C)N(Cc2cccnc2)C[C@H]1C | -14 | -12
CCCC#Cc1ccc([C@@H]2[C@@H](CO)N(C(=O)C3CCCC3)[C@H]2C#N)cc1 | -20 | -10
O=C1CN(S(=O)(=O)c2ccccc2)C[C@@H]2[C@@H](c3ccc(Br)cc3)[C@H](CO)N12 | -7 | -17
COc1ccc(S(=O)(=O)N(C)C[C@H]2Oc3ccc(NS(C)(=O)=O)cc3C(=O)N([C@@H](C)CO)C[C@@H]2C)cc1 | 8 | 10
O=C(NCc1ccc(F)cc1)[C@@H]1C[C@@H]2C(=O)N3CCC[C@H]3C(=O)N2[C@@H]1c1cccc(OCCO)c1 | 15 | 14
C[C@@H]1CN([C@@H](C)CO)C(=O)c2cc(-c3cncnc3)cnc2O[C@@H]1CN(C)C(=O)Cc1ccccc1 | 8 | 15
CN1c2ccc(-c3cccc(C#N)c3)cc2[C@@H]2[C@@H](CCN2C(=O)NC2CCCC2)[C@@H]1CO | ? | .
C[C@H]1CN([C@@H](C)CO)C(=O)c2cc(NS(C)(=O)=O)ccc2O[C@@H]1CN(C)Cc1ccc2c(c1)OCO2 | 7 | 3
O=C(Cc1cccnc1)N1CC(=O)N2[C@H](CO)[C@H](c3ccc(C4=CCCCC4)cc3)[C@@H]2C1 | 4 | 5
Cc1noc(C)c1S(=O)(=O)Nc1ccc2c(c1)C(=O)N([C@@H](C)CO)C[C@@H](C)[C@@H](CN(C)S(=O)(=O)c1c(C)noc1C)OCCCC[C@@H](C)O2 | -29 | -20
C[C@H](CO)N1C[C@H](C)[C@H](CN(C)Cc2ccc(-c3ccccc3)cc2)Oc2ccc(NC(=O)c3ccncc3)cc2C1=O | -9 | -15
C[C@H](O)C#Cc1ccc2c(c1)O[C@H](CN(C)C(=O)C1CCCCC1)[C@H](C)CN([C@H](C)CO)S2(=O)=O | 2 | -3
O=C(CN1CCOCC1)N[C@H]1CC[C@H](CCn2cc(C3CCCCC3)nn2)O[C@H]1CO | 20 | 19
O=C(c1ccc2c(c1)OCO2)N1CC(=O)N2[C@H](CO)[C@@H](c3ccc(C#CCC4CCCC4)cc3)[C@H]2C1 | ? | .
Cc1ccc(S(=O)(=O)N(C)C[C@@H]2Oc3ccc(NC(=O)Nc4c(C)noc4C)cc3C(=O)N([C@@H](C)CO)C[C@H]2C)cc1 | 6 | 3
CCNC(=O)C[C@H]1CC[C@@H]2[C@H](COc3ccc(NC(=O)c4cccs4)cc3C(=O)N2C)O1 | 0 | 6
O=C(NCC1CC1)[C@@H]1[C@@H](CO)[C@@H]2Cn3c(cccc3=O)[C@H]1N2C(=O)c1cccnc1 | 13 | 5
O=C(c1ccccn1)N1CC2(C1)[C@@H](c1ccccc1)[C@@H](CO)N2Cc1ccc(F)cc1 | 4 | 3
O=C(Nc1ccc2c(c1)[C@@H]1C[C@H](CC(=O)N3CCOCC3)O[C@H](CO)[C@@H]1O2)c1cccnc1 | 6 | -1
C[C@@H]1CN([C@H](C)CO)C(=O)c2cc(NC(=O)Cn3cnnn3)ccc2O[C@@H]1CN(C)S(=O)(=O)c1ccc(Cl)cc1 | 2 | 2
O=C(C[C@H]1C=C[C@@H](NC(=O)CN2CCOCC2)[C@@H](CO)O1)NC1CCC1 | 9 | 6
C[C@H](CO)N1C[C@H](C)[C@H](CN(C)C(=O)c2ccccc2)Oc2cc(C#CC3CC3)ccc2S1(=O)=O | -9 | -7
C[C@H](NC(=O)C[C@H]1CC[C@H](NC(=O)C2CCOCC2)[C@H](CO)O1)c1ccccc1 | 9 | 5
C/C=C/c1ccc([C@H]2[C@H](CO)N3CCCCN(C(=O)Nc4ccc(F)cc4)C[C@@H]23)cc1 | ? | .
CC(C)NC(=O)Nc1ccc2c(c1)C(=O)N([C@@H](C)CO)C[C@@H](C)[C@H](CN(C)CC1CC1)OCCCC[C@@H](C)O2 | -3 | -4
Cc1noc(C)c1S(=O)(=O)N(C)C[C@H]1OCc2cn(nn2)CCCC(=O)N([C@H](C)CO)C[C@@H]1C | 3 | 5
C[C@H]1CN([C@@H](C)CO)C(=O)c2c(c3ccccc3n2C)-c2ccccc2CO[C@H]1CN(C)C(=O)NC1CCCCC1 | ? | .
C[C@@H](NC(=O)C[C@H]1CC[C@H](NC(=O)CN2CCOCC2)[C@H](CO)O1)c1ccccc1 | -3 | -1
CCCNC(=O)c1cc2c(c(-c3cccc(-c4cc5ccccc5o4)c3)n1)[C@@H](CCO)N(C(=O)NC(C)C)C2 | ? | .
Cc1noc(C)c1NC(=O)Nc1cccc2c1O[C@H](CN(C)S(C)(=O)=O)[C@@H](C)CN([C@@H](C)CO)C2=O | 32 | 16
COCC(=O)N1[C@H](CO)[C@H](c2ccc(-c3ccccc3OC)cc2)C12CN(C(C)=O)C2 | -1 | 8
C[C@@H]1CN([C@@H](C)CO)C(=O)Cc2cc(NC(=O)CCCCCC(=O)Nc3ccccc3N)ccc2O[C@H]1CN(C)CC1CC1 | 25 | 4
Cc1ccc(S(=O)(=O)N(C)C[C@H]2Oc3ccc(NS(=O)(=O)c4cccs4)cc3C(=O)N([C@H](C)CO)C[C@H]2C)cc1 | 0 | 4
C[C@@H]1CCCCO[C@@H](CN(C)C(=O)NC2CCCCC2)[C@H](C)CN([C@H](C)CO)C(=O)c2cc(NC(=O)NC3CCCCC3)ccc2O1 | -28 | -26
O=C(N[C@@H]1CC[C@H](CCNC(=O)c2ccccc2F)O[C@H]1CO)c1cnccn1 | 4 | 1
CCC(=O)N1[C@H](C(=O)NC2CCCC2)[C@@H](CO)[C@@H]2Cn3c(cccc3=O)[C@@H]21 | 13 | 3
C[C@H](CO)N1C[C@H](C)[C@H](CN(C)C)Oc2ccc(NS(C)(=O)=O)cc2CC1=O | 11 | 15
O=C(C1CCOCC1)N1[C@@H]2CNc3ccccc3[C@@H]2[C@@H]1CO | 8 | 7
O=C(Nc1ccc2c(c1)[C@@H]1C[C@H](CC(=O)N3CCCCC3)O[C@@H](CO)[C@@H]1O2)C1CCOCC1 | -3 | 7
O=C(C[C@H]1CC[C@@H](NC(=O)C2CCOCC2)[C@@H](CO)O1)Nc1ccccc1 | 8 | 0
Cc1noc(C)c1S(=O)(=O)Nc1ccc2c(c1)C(=O)N([C@H](C)CO)C[C@@H](C)[C@H](CN(C)Cc1ccc(C(=O)O)cc1)OCCCC[C@@H](C)O2 | -1 | -3
CO[C@@H]1CN(C)C(=O)c2ccc(NC(=O)Nc3ccccc3F)cc2OC[C@H](C)N(Cc2ccccc2C(=O)O)C[C@H]1C | 4 | -6
CC(=O)N1CC2(C1)[C@H](c1ccc(-c3cccc(C#N)c3)cc1)[C@H](CO)N2CCC(F)(F)F | -10 | 0
CC(C)NC(=O)Nc1ccc2c(c1)CC(=O)N([C@@H](C)CO)C[C@H](C)[C@@H](CN(C)Cc1ccc(Oc3ccccc3)cc1)O2 | -11 | -10
Cc1noc(C)c1NC(=O)Nc1cccc2c1O[C@H](CN(C)C(=O)NC(C)C)[C@@H](C)CN([C@H](C)CO)C2=O | 8 | 11
COCC(=O)N[C@H]1CC[C@H](CC(=O)NCc2ccccc2OC)O[C@@H]1CO | -1 | 0
Cc1ccc(S(=O)(=O)Nc2cccc3c2O[C@@H](CN(C)S(=O)(=O)c2ccc(C)cc2)[C@H](C)CN([C@@H](C)CO)C3=O)cc1 | -1 | 3
CC(C)NC(=O)N(C)C[C@H]1Oc2ncc(C#Cc3ccncc3)cc2C(=O)N([C@H](C)CO)C[C@@H]1C | 11 | 14
Cc1noc(C)c1NC(=O)N(C)C[C@@H]1Oc2c(NS(C)(=O)=O)cccc2C(=O)N([C@H](C)CO)C[C@@H]1C | 27 | 9
CN1c2ccc(-c3cccc(F)c3)cc2[C@@H]2[C@@H](CCN2S(=O)(=O)c2cccc(F)c2)[C@@H]1CO | -28 | -18
COc1ccccc1C#Cc1ccc([C@@H]2[C@H]3CN(CCC(F)(F)F)CCCCN3[C@H]2CO)cc1 | ? | .
CO[C@@H]1CN(C)C(=O)c2ccc(NC(=O)Nc3ccc(F)cc3)cc2OC[C@@H](C)NC[C@@H]1C | -1 | 5
C[C@@H]1CN([C@@H](C)CO)C(=O)Cc2cc(N(C)C)ccc2O[C@H]1CN(C)C(=O)NC1CCCCC1 | 23 | 7

Arranged by molecular weight (low to high): some entries from above.
SMILES | Vaccinia stage | Vaccinia stage Venus
CN1c2ccc(-c3cccc(C#N)c3)cc2[C@@H]2[C@@H](CCN2C(=O)NC2CCCC2)[C@@H]1CO | ? | .
O=C(Cc1cccnc1)N1CC(=O)N2[C@H](CO)[C@H](c3ccc(C4=CCCCC4)cc3)[C@@H]2C1 | 4 | 5
COc1ccccc1C#Cc1ccc([C@@H]2[C@H]3CN(CCC(F)(F)F)CCCCN3[C@H]2CO)cc1 | ? | .
C[C@@H]1CN([C@@H](C)CO)C(=O)c2cc(-c3cncnc3)cnc2O[C@@H]1CN(C)C(=O)Cc1ccccc1 | 8 | 15
CC(C)NC(=O)Nc1ccc2c(c1)C(=O)N([C@@H](C)CO)C[C@@H](C)[C@H](CN(C)C(=O)Nc1ccc(C(F)(F)F)cc1)O2 | 3 | -3
Cc1noc(C)c1S(=O)(=O)Nc1ccc2c(c1)C(=O)N([C@H](C)CO)C[C@@H](C)[C@H](CN(C)Cc1ccc(C(=O)O)cc1)OCCCC[C@@H](C)O2 | -1 | -3

Other entries
SMILES | Vaccinia stage | Vaccinia stage Venus
COc1cccc(-c2cnc3c(c2)C(=O)N([C@H](C)CO)C[C@H](C)[C@H](CN(C)C(=O)CC2CC2)O3)c1 | 10 | 11
C/C=C/c1ccc2c(c1)O[C@@H](CN(C)C(=O)c1ccccc1F)[C@@H](C)CN([C@@H](C)CO)S2(=O)=O | -13 | -4
C[C@@H]1CN([C@H](C)CO)C(=O)c2cc(/C=C/c3ccccc3)cnc2O[C@H]1CN(C)C(=O)Nc1ccccc1F | -18 | -10
O=C(CN1CCOCC1)NC[C@@H]1N[C@@H](CO)[C@H]1c1ccc(-c2ccccc2)cc1 | -15 | -17
COc1ccc(S(=O)(=O)N(C)C[C@@H]2Oc3ccc(NC(=O)Cn4cnnn4)cc3C(=O)N([C@@H](C)CO)C[C@H]2C)cc1 | -1 | -6
COC(=O)C[C@H]1CC[C@@H]2[C@H](COc3ccc(NC(=O)Nc4ccc(C#N)cc4)cc3C(=O)N2C)O1 | 0 | -1
C[C@@H]1CN([C@H](C)CO)C(=O)c2cc(/C=C/c3ccccc3)cnc2O[C@@H]1CN(C)C(=O)c1ccncc1 | 11 | 4
C[C@@H]1CN([C@H](C)CO)C(=O)c2cccc(NC(=O)Nc3ccc(C(F)(F)F)cc3)c2O[C@H]1CN(C)Cc1ccc(Oc2ccccc2)cc1 | 6 | 7
C[C@@H]1CCCCO[C@@H](CN(C)C(=O)Nc2cccc3ccccc23)[C@H](C)CN([C@@H](C)CO)C(=O)c2cc(NC(=O)c3ccncc3)ccc2O1 | -13 | -3
O=C(C[C@H]1C=C[C@H](NC(=O)Nc2ccc(F)cc2)[C@@H](CO)O1)NCc1ccccn1 | 3 | 3
C[C@@H]1CCCCO[C@@H](CN(C)Cc2ccc(Cl)c(Cl)c2)[C@@H](C)CN([C@@H](C)CO)C(=O)c2cc(NC(=O)Nc3cccc4ccccc34)ccc2O1 | 7 | 1
CCCNC(=O)[C@@H]1[C@@H](CO)[C@@H]2Cn3c(cccc3=O)[C@H]1N2Cc1cc(F)ccc1F | 11 | 11
COc1ccc(C[C@@H]2CCc3cnnn3COC[C@H](Cc3ccccc3)NC2=O)cc1 | -2 | -8
Cc1ccc(S(=O)(=O)Nc2ccc3c(c2)CC(=O)N([C@H](C)CO)C[C@H](C)[C@@H](CN(C)C(=O)Nc2ccc(C(F)(F)F)cc2)O3)cc1 | 3 | 11
COCC(=O)N1[C@@H](CO)[C@@H](c2ccccc2)C12CN(C(=O)NC1CCCC1)C2 | 14 | 5
O=C(C[C@H]1CC[C@H]2[C@@H](COC[C@H](O)CN2S(=O)(=O)c2ccccc2)O1)NCCN1CCCCC1 | 9 | 16
CCCC(=O)Nc1ccc2c(c1)OC[C@@H](C)N(C(=O)CC1CC1)C[C@@H](C)[C@H](OC)CN(C)C2=O | 9 | 5
COCC(=O)N1CC(=O)N2[C@H](C1)[C@@H](c1ccc(C#CC3CCCCC3)cc1)[C@@H]2CO | -26 | -20

Entries of single compounds from above. Screens in order: Vaccinia stage | Vaccinia stage Venus
O=C(c1ccccn1)N1CC2(C1)[C@@H](c1ccccc1)[C@@H](CO)N2Cc1ccc(F)cc1 as listed: 4 | 3
C[C@H](CO)N1C[C@H](C)[C@H](CN(C)C(=O)c2ccccc2)Oc2cc(C#CC3CC3)ccc2S1(=O)=O as listed: -9 | -7
